AF4-AF9 inh: inhibitors of human MLL-AF4/AF9 interaction | P42568 | AlphaScreen, biotin-AF4 peptide binding to FLAG-AF9 | inhibition, % at 10 µM | 0.47% of 350,000 active | AID 651704;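 active means every replicate reaching a set inhibition limit, whatever the replicate mean, cut at about 25% in these data; inconclusive means mean inhibition reaches that limit but some replicates miss it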;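 further: 0% = plate neutral control median and 100% = total signal loss; the record names both 10 and 1 µM as test concentration; the first replicate is given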
Target sequence (P42568 whole entry, looked up): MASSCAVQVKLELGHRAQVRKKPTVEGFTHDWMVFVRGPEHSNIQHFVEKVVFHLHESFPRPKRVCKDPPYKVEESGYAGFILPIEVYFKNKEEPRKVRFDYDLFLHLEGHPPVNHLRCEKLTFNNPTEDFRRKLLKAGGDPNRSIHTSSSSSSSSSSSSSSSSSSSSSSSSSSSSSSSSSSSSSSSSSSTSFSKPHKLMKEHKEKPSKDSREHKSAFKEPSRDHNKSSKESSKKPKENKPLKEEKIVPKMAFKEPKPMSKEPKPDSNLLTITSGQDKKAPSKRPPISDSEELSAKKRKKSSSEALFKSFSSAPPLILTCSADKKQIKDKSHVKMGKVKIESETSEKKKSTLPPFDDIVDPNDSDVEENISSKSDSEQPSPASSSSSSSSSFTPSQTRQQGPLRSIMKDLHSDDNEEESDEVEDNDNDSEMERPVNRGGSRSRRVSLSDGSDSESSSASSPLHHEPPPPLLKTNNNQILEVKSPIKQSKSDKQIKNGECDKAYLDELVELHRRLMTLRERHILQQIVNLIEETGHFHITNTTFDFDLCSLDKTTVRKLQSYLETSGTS
Calb FLC: C. albicans growth modulation with fluconazole. C. albicans CaCi-2 (fluconazole-resistant clinical isolate) + fluconazole, Alamar Blue growth, 48 h. 0.57% of 300,000 active. AID 1979. growth inhibition, % (concentration not given with the values);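 active means most replicates above 75%; inconclusive means exactly half above 75%; inactive means most below 75%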;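 further: all wells also contain fluconazole at 8 µg/ml as a sub-toxic cotreatment; 0% = median of DMSO wells and 100% = median of geldanamycin control wells; wells of about 8 µL received 7.5 nL stock; the first replicate is given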
Ecoli rRNA inh: selective bacterial rRNA inhibition in E. coli; E. coli WT GFP vs humanized-ribosome RFP mutants, fluorescence, 24 h; active compounds read low; DMSO median 0, no signal -100; GFP signal change (wild-type ribosome), % (test concentration not listed); 1.6% of 350,000 active; AID 720706;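 active means significant combined selectivity score with lowered wild-type GFP, culture density cut under 30%, mutant RFP and density less affected; inactive means any of these conditions unmet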; further: one replicate is shown; some compounds called inactive have numbers as strong as hits
RanGTP-Imp inh: disruptors of Ran-importin-beta complex formation – biochemical, FRET, CFP-Ran, YFP-importin-beta, homogeneous, primary screen; cell-free CFP-Ran/YFP-importin-beta FRET ratio; inhibition, % (concentration not given with the values); 1.1% of 300,000 active;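 active means most replicates above 15%; inconclusive means exactly half above 15%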;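 further: 0% = DMSO wells and 100% = Ran loaded with GDP instead of GTP; wells of about 40 µL received 100 nL stock; the first replicate is given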
T cruzi repl: blocks replication of Trypanosoma cruzi; T. cruzi beta-gal in NIH3T3, luminescence, 90 h; inhibition, % (concentration not given with the values); 1.4% of 300,000 active; AID 1885;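 active means mean inhibition across valid replicates above about 55%, limit read from the data; inconclusive means mean below that limit but half or more replicates reach it; inactive means mean below it, under half of replicates reach it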;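 further: signal also drops with host cell toxicity which is not excluded here; 0% = plate median of DMSO wells and 100% = zero luminescence signal; higher percent means less beta-gal luminescence so fewer parasites; stock transfer was 50 nL into about 50 µL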
Beta cell apopt: blocks beta cell apoptosis | INS-1E cytokine-induced death, ATP luminescence, 48 h; percent of positive-control rescue, neutral wells zero | AID 435005 | 0.8% of 300,000 active | protection from apoptosis, % (test concentration not listed);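 active means all replicates at 75% or more, or half of them and the mean; inconclusive means half reach 75% but not the mean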;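 further: 0% = cytokine-treated negative control wells and 100% = positive control rescue; higher means more ATP so stronger rescue from cytokine killing; wells of about 40 µL received 100 nL stock; the first replicate is given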
FGF22 binding: FGF22 (human) thermal shift binding | Q9HCT0 | recombinant FGF22 thermal shift, SYPRO orange fluorescence; percent of sucrose octasulfate shift, DMSO zero | calls only at 9.99 µM | 1.5% of 340,000 active;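 active means melting point raised past a set limit in the mean and every replicate; inconclusive means no clear call; three in four hits are not shown here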
Target sequence (Q9HCT0 whole entry, looked up): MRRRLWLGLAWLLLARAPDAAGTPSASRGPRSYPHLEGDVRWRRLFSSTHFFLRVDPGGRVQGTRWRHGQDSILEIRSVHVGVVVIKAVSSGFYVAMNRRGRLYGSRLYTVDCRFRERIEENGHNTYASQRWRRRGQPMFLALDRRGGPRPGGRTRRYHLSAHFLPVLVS
ALR H2O2 inh: human ALR oxidase inhibition via reduced H2O2; AID 485317; 3.8% of 290,000 active; purified ALR, DTT oxidation, H2O2 HRP-luminol luminescence; inhibition, % (test concentration not listed);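 active means mean and each replicate at 75% or more; inconclusive means only one of the two met; inactive means neither met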;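 further: stock transfer was 7.5 nL into about 7.5 µL; 0% = neutral wells and 100% = wells with inactivated enzyme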
Target sequence (P55789 whole entry, looked up): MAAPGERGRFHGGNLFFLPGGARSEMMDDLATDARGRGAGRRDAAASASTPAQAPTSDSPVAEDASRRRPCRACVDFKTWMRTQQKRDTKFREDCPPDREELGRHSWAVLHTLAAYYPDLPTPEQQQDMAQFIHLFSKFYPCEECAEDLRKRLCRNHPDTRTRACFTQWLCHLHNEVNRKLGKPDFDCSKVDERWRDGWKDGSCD
Ecoli rRNA inh OD600: second read-out of Ecoli rRNA inh, no call of its own (marks repeat the call); OD600 change, %; measured here: OD600 growth;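 optical density of the mix in the first replicate; 0 = DMSO median and -100 = no signal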
Ecoli rRNA inh RFP: second read-out of Ecoli rRNA inh, no call of its own (marks repeat the call); RFP signal change, %; measured here: RFP humanized mutant strains;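 first replicate; 0 = DMSO median and -100 = no signal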
* hit, by the source's call; i = inactive; ? = inconclusive; . = no result given; & = joins results of further samples.

SMILES	AF4-AF9 inh	Calb FLC	Ecoli rRNA inh	Ecoli rRNA inh OD600	Ecoli rRNA inh RFP	RanGTP-Imp inh	T cruzi repl	Beta cell apopt	FGF22 binding	ALR H2O2 inh
Cc1c(S(=O)(=O)N2CCN(c3ccc(F)cc3)CC2)c(=O)n(C)c(=O)n1C	-2.2	2	8	9	-0.3	0.4	-8	4	i	4
N/C(=N\NC(=O)Nc1ccc(Cl)cc1)c1ccccn1	0.9	4	5	8	-2.7	0.6	8	.	i	-10
Cn1c(=O)c2c(nc(NCc3cccnc3)n2Cc2ccc(Cl)cc2)n(C)c1=O	.	?	.	.	.	2.7	14	6	.	8
COCCCNC(=O)CCc1nc(-c2ccccc2Cl)no1	.	10	.	.	.	-1.1	-11	-11	.	-2
CN(C(=O)c1ccc(NC(=O)Cc2cccc(NC(=O)C3CCN(C(=O)C4CCC4)CC3)c2)cc1)C1CCCC1	.	.	-6	-7	-3.7	.	.	-6	i	9
Cc1ccc(NC(=O)COC(=O)Cc2cccs2)c(Br)c1	-1.4	6	-1	-17	-2.2	3.2	-8	-2	i	2
Cc1cc([N+](=O)[O-])ccc1N	-4.8	-5	0	9	-1.6	0.1	-17	-1	.	-1
O=C(Nc1ccccc1)O/N=C/c1ccccc1Cl	.	-1	.	.	.	-1.4	15	-5	.	27
CCOC(=O)c1c(NC(C)=O)sc2c1CCC(C=NCCCN(CC)CC)=C2Sc1ccccc1	.	-5	.	.	.	5.1	30	.	.	-19
COc1ccc(CNc2nc(-c3cccnc3)nn2C(=O)c2ccco2)cc1	.	-3	.	.	.	1.0	0	-16	.	10
Cc1ccc(/C=C(/C#N)c2nc(CCN3C(=O)c4ccccc4C3=O)cs2)cc1	.	35	.	.	.	-4.0	7	-1	.	-11
CC(=O)N1CCCc2cc(S(=O)(=O)NCc3ccc(C)cc3)ccc21	.	-7	.	.	.	5.3	-10	1	.	-5
CN1C(=O)c2cccc3c(N(C)C)ccc(c23)C1=O	-7.1	1	20	-10	4.0	-49	17	-1	.	2
NNC(=O)CCCCCCCCCCOCCCCO	1.9	-31	.	.	.	2.2	4	-2	i	-24
O=C(NCc1ccon1)C1CCC(=O)N(CCc2ccc(Cl)cc2)C1 (stereo not drawn)	-2.2	5	3	9	-1.7	5.1	-6	-8	i	0
COC(=O)c1ccccc1NC(=O)CSc1nnc(C(CO)NC(=O)c2ccccc2)n1C (stereo not drawn)	5.2	6	7	0	2.4	0.9	4	.	i	-12
CC(=O)Nc1ccc(NC(=O)CCCn2cnc3ccccc3c2=O)cc1	-1.0	9	9	35	14	3.9	-13	1	i	-9
Cc1ccc(C(C)C)c(OCc2nn(CC(=O)c3ccc(Cl)cc3)c3[n+]2CCCCC3)c1	23	17	.	.	.	5.5	86*	136*	i	.
COc1ccc(CCNC(=O)CN(Cc2ccc(Cl)cc2)S(C)(=O)=O)cc1OC	-7.5	3	5	5	1.5	7.0	-11	.	i	0
CN(Cc1ccc(F)cc1)C(=O)COc1ccccc1-c1ccccc1	-0.2	-5	.	.	.	0.1	-2	-9	i	-13
O=C(NCCCN1CCOCC1)c1sc2cc(F)ccc2c1Cl	-2.1	4	4	-5	3.5	2.4	9	0	i	-6
CCCN(CC(=O)Nc1ccc(Cl)cc1Cl)C(=O)CC(NC(C)=O)c1ccccc1 (stereo not drawn)	-0.3	9	3	-2	4.1	-1.4	2	0	i	-5
COc1cccc(C(=O)Nc2cc(C)ccc2NC(=O)COc2ccccc2)c1	.	5	.	.	.	?	3	0	.	8
O=C(Cc1ccccc1F)Nc1cccc(S(=O)(=O)N2CCOCC2)c1	-1.5	.	-4	-3	-3.0	.	.	-6	i	-3
CC(C)NC(=S)NC1(C)CCS(=O)(=O)C1 (stereo not drawn)	.	-5	.	.	.	?	-4	-7	.	-4
O=C(N/C(=C\c1ccc(Cl)cc1)C(=O)N1CCOCC1)c1ccc([N+](=O)[O-])cc1	-11	7	1	6	-3.1	4.6	2	5	i	-31
C=CCOc1cccc(C2C(C(=O)c3cccs3)=C(O)C(=O)N2Cc2cccnc2)c1 (stereo not drawn)	-1.1	14	-6	-9	-1.8	-0.7	-5	-7	.	.
COc1cc(/C=N/N2C(=O)C3C4C=CC(CC4)C3C2=O)ccc1O (stereo not drawn)	-0.6	6	13	10	4.8	-0.3	0	.	.	90*
CCOC(=O)c1cn2nc(Oc3ccc(C#N)cc3)ccc2n1	2.3	0	5	4	2.0	2.2	-23	5	i	8
OCc1ccc(OCCCOc2cccc3cccnc23)cc1	0.2	-3	-11	-9	-5.0	-0.4	0	-1	i	-51
Cc1ccc2c(c1)nnc1nnc(SCC(=O)O)n12	2.3	-4	-13	-10	-1.6	-16	-5	-4	i	-12
CC(C)(C)CN1CCNC(=O)C1CC(=O)N1CCC(C(=O)N2CCOCC2)CC1 (stereo not drawn)	-0.1	-3	6	16	-0.9	1.6	-10	0	i	2
COc1ccc(OC(C)C(=O)N2CC(C)OC(C)C2)cc1 (stereo not drawn)	4.0	17	1	-6	6.7	-5.8	-11	3	i	.
Cc1cc(Cl)n2c(nc3cc(F)c(F)cc32)c1C#N	-0.4	-6	-56	-81	-32	0.8	79*	.	i	.
COc1ccc(-c2cc(C(=O)Nc3cc(C)nn3-c3ccccc3)no2)cc1	.	15	.	.	.	-3.1	-11	-3	.	.
O=[N+]([O-])c1ccc(C[n+]2cccc(O)c2)cc1	.	2	7	8	-1.8	-2.2	-8	-8	i	.
CCOc1cc(C(=O)Nc2nnc(C)s2)cc(OCC)c1OCC	9.8	7	-1	-1	0.8	9.9	7	-1	i	-3
C=CCn1c(-c2cnn(-c3ccccc3)c2N)n[nH]c1=S	-2.3	-4	7	18	-0.6	-5.1	5	1	i	-2
COCCn1cnc2c(c1=O)c1nc3ccccc3nc1n2/N=C/c1ccco1	.	7	1	5	-5.1	2.5	1	.	i	-12
C=CCn1c(O)c2ccc(C(=O)N=NC(=O)COc3ccccc3F)cc2c1O	0.9	-5	6	3	0.7	-3.8	-1	0	i	-3
CCCc1cc(=O)oc2cc(OCC(=O)N3CCC(C(N)=O)CC3)ccc12	-1.7	-1	.	.	.	4.1	2	-4	i	-8
CCN1C(=O)[C@H]2[C@@H](c3ccc(C)cc3)N3C(=O)N(c4ccc(OC)cc4)C(=O)[C@@]3(CC)[C@H]2C1=O	.	2	.	.	.	1.7	-10	-6	.	.
COc1ccc(-n2nnnc2-c2cnc(N3CCCC3)nc2C(F)(F)F)cc1	.	18	.	.	.	-1.3	6	6	.	-3
O=C(CCNc1cccc(C(F)(F)F)c1)c1ccco1	.	-3	.	.	.	1.4	16	-21	.	-4
O=C1c2ccccc2C(=O)N1CC(O)COc1ccc(Cl)cc1 (stereo not drawn)	-6.8	-1	3	-2	5.5	-3.9	-5	-11	i	-11
COc1ccc(NS(=O)(=O)c2cc(NC(=O)C3CCCO3)ccc2N2CCCCC2)cc1 (stereo not drawn)	4.3	26	-19	-16	-1.0	-0.3	35	-1	i	-3
COc1cc(C(=O)NCCCNc2nc3c(C)cc(C)cc3cc2C#N)cc(OC)c1OC	-10	-2	19	9	0.5	2.1	12	3	i	-1
O=C(Nc1ccc(Cl)cc1)c1ccc2nsnc2c1	-0.6	4	6	11	0.3	5.2	-3	-1	i	-4
O=C(NCCCN1CCCC1=O)C1CCN(S(=O)(=O)c2cccc(C(F)(F)F)c2)CC1	27*	3	5	9	0.1	0.3	-3	3	i	5
O=C(Nc1cc(Cl)ccc1N1CCOCC1)c1ccc(=O)[nH]c1	5.3	.	11	0	4.7	.	.	1	i	0
CCC(C)C(=O)Nc1nc2c(s1)C(=O)CC(C)(C)C2 (stereo not drawn)	-1.2	-1	1	3	-1.8	0.6	-6	-7	i	5
CC(C)N(CCCNC(=O)CC1Oc2ccccc2NC1=O)Cc1ccccc1 (stereo not drawn)	-13	-14	2	1	0.5	0.9	-3	-6	i	-94
CCn1cc(C(=O)NCc2ccc(Cl)cc2)c(=O)c2cc(S(=O)(=O)N3CCOCC3)ccc21	1.0	25	3	15	-0.1	1.9	34	4	i	-8
O=S(=O)(/C=C/c1ccccc1)N1CCN(Cc2ccc3c(c2)OCO3)CC1	0.1	-30	-22	-27	-4.3	-1.3	3	-4	.	-10
COc1ccc(S(=O)(=O)N(C)C[C@H]2Oc3c(NC(=O)C4CC4)cccc3C(=O)N([C@H](C)CO)C[C@@H]2C)cc1	-1.1&-0.1	.	-2	5	0.0	.	.	-5	i	-1
Cc1cccc(N2CC(C(=O)OCC(=O)c3ccc(OC(=O)c4cccs4)cc3)CC2=O)c1C (stereo not drawn)	.	-10	.	.	.	-1.7	-3	-2	.	-8
CCOC(=O)c1cc(C#N)c(N2CCN(C(=O)c3cccc(C(F)(F)F)c3)CC2)nc1C(F)(F)F	.	-5	-4	4	-2.8	-2.2	.	.	i	1
CCc1ccc(C2=NN(CCC(=O)NCc3cccs3)C(=O)CC2)cc1	3.8	16	-7	-9	-3.5	1.3	-6	-2	i	-3
COc1ccccc1NC(=O)C(=O)N/N=C(\C)CC(=O)Nc1ccc(OCc2ccccc2)cc1	.	10	.	.	.	2.7	2	5	.	.
Cc1ccc2nnnc(-c3ccccc3)c2c1	-3.0	1	13	12	13	-2.3	-5	-3	i	1

The last two entries of the part above are carried over, then new ones follow:
SMILES	AF4-AF9 inh	Calb FLC	Ecoli rRNA inh	Ecoli rRNA inh OD600	Ecoli rRNA inh RFP	RanGTP-Imp inh	T cruzi repl	Beta cell apopt	FGF22 binding	ALR H2O2 inh
COc1ccccc1NC(=O)C(=O)N/N=C(\C)CC(=O)Nc1ccc(OCc2ccccc2)cc1	.	10	.	.	.	2.7	2	5	.	.
Cc1ccc2nnnc(-c3ccccc3)c2c1	-3.0	1	13	12	13	-2.3	-5	-3	i	1
Cc1nc(N2CCN(c3ccccn3)CC2)c2c(C)c(C(=O)Nc3ccc(F)c(Cl)c3)sc2n1	-1.8	0	4	2	-2.7	?	4	1	i	2
CCOC(=O)C1CCCN(C(=O)CN2C(=O)NC(C)(c3ccc4ccccc4c3)C2=O)C1 (stereo not drawn)	-11	-2	-3	1	-2.5	-2.1	-3	-6	i	1
COc1ccc(CCN(C)CC(=O)Nc2c(C)cc(C)cc2C)cc1OC	-0.5	-2	2	0	0.2	-2.2	61*	-1	i	-4
CCOc1ccccc1/C=C(/NC(=O)c1ccccc1)C(=O)N1CCCCC1	2.2	7	3	-17	6.3	2.0	10	2	i	-5
CC(=O)Nc1ccc(OCC(O)Cn2cnc3ccccc32)cc1 (stereo not drawn)	.	-3	.	.	.	-1.4	-12	0	.	-9
Cc1cc(NC(=O)CSc2nc3ccccc3n2CC(=O)N2CCCCC2)no1	6.8	-4	9	4	-2.2	7.2	-4	.	i	.
COc1ccc(N2CCN(C(=O)CCS(=O)(=O)c3ccc4c(c3)NC(=O)CO4)CC2)cc1	0.6	-3	1	-4	0.1	4.4	5	1	i	66
COc1ccccc1NC(=O)CSc1nnc(-c2ccc(NC(C)=O)cc2)n1C	.	-31	.	.	.	5.3	6	-2	.	-6

Screening results deposited in PubChem by Broad Institute.

This is a subset; count on the stated rates, not on these rows.
